Screening results (PubChem BioAssay)
Calb FLC: affects C. albicans growth with fluconazole | C. albicans CaCi-2 (fluconazole-resistant clinical isolate) + fluconazole, Alamar Blue growth, 48 h | growth inhibition, % (test concentration not listed) | hit rate 0.57% among 300,000 | AID 1979;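 active = most replicates above 75%; inconclusive = exactly half above 75%; inactive = most below 75%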;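 note: all wells also contain fluconazole at 8 µg/ml as a sub-toxic cotreatment; 0% = median of DMSO wells and 100% = median of geldanamycin control wells; wells of about 8 µL received 7.5 nL stock; the first replicate is given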
AF4-AF9 inh: MLL-AF4/AF9 protein interaction inhibition. P42568. hit rate 0.47% among 350,000. inhibition, % at 10 µM. AlphaScreen, biotin-AF4 peptide binding to FLAG-AF9;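 active = every replicate reaching a set inhibition limit, whatever the replicate mean, cut at about 25% in these data; inconclusive = mean inhibition reaches that limit but some replicates miss it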;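 note: 0% = plate neutral control median and 100% = total signal loss; the record names both 10 and 1 µM as test concentration; the first replicate is given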
Target sequence (P42568 whole entry, looked up): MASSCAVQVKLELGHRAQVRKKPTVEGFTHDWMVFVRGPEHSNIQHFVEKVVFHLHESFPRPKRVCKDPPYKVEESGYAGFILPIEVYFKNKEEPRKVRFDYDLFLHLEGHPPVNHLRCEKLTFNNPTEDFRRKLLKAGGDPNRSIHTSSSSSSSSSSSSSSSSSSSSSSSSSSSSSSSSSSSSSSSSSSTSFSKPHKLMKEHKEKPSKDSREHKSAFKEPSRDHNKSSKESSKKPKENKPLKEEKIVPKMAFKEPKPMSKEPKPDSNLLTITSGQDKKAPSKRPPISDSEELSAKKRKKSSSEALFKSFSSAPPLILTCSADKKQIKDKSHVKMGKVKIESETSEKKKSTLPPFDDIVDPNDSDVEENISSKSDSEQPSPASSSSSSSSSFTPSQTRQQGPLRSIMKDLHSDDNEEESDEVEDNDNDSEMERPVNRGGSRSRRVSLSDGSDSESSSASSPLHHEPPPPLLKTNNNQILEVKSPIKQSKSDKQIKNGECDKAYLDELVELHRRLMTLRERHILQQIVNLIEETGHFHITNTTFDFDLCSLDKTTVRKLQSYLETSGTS
T cruzi repl: blocks replication of Trypanosoma cruzi. hit rate 1.4% among 300,000. AID 1885. inhibition, % (no concentration beside the values). T. cruzi beta-gal in NIH3T3, luminescence, 90 h;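 active = mean inhibition across valid replicates above about 55%, limit read from the data; inconclusive = mean below that limit but half or more replicates reach it; inactive = mean below it, under half of replicates reach it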;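 note: signal also drops with host cell toxicity which is not excluded here; 0% = plate median of DMSO wells and 100% = zero luminescence signal; higher percent means less beta-gal luminescence so fewer parasites; stock transfer was 50 nL into about 50 µL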
rRNA inh HTS: selective bacterial rRNA inhibition in E. coli. E. coli WT GFP vs humanized-ribosome RFP mutants, fluorescence, 24 h; active compounds read low; DMSO median 0, no signal -100. GFP signal change (wild-type ribosome), % (test concentration not listed). hit rate 1.6% among 350,000. AID 720706;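 active = significant combined selectivity score with lowered wild-type GFP, culture density cut under 30%, mutant RFP and density less affected; inactive = any of these conditions unmet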; note: one replicate is shown; some compounds called inactive have numbers as strong as hits
RanGTP-Imp inh: inhibitors of RanGTP-importin-beta interaction, primary screen, biochemical, FRET, CFP-Ran, YFP-importin-beta, homogeneous. cell-free CFP-Ran/YFP-importin-beta FRET ratio. inhibition, % (test concentration not listed). hit rate 1.1% among 300,000. AID 2216;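 active = most replicates above 15%; inconclusive = exactly half above 15%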;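 note: 0% = DMSO wells and 100% = Ran loaded with GDP instead of GTP; wells of about 40 µL received 100 nL stock; the first replicate is given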
ALR H2O2 inh: inhibitors of human sulfhydryl oxidase ALR; P55789; purified ALR, DTT oxidation, H2O2 HRP-luminol luminescence; inhibition, % (test concentration not listed); hit rate 3.8% among 290,000; AID 485317;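 active = mean and each replicate at 75% or more; inconclusive = only one of the two met; inactive = neither met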;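 note: stock transfer was 7.5 nL into about 7.5 µL; 0% = neutral wells and 100% = wells with inactivated enzyme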
Target sequence (P55789 whole entry, looked up): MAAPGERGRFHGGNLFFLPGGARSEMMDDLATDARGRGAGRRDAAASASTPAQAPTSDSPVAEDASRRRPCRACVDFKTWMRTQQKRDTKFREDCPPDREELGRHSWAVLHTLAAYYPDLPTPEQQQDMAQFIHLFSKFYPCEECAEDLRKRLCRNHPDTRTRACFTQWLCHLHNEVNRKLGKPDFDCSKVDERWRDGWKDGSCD
Beta apoptosis: beta cell apoptosis inhibition. INS-1E cytokine-induced death, ATP luminescence, 48 h; percent of positive-control rescue, neutral wells zero. protection from apoptosis, % (concentration not given with the values). hit rate 0.8% among 300,000;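 active = all replicates at 75% or more, or half of them and the mean; inconclusive = half reach 75% but not the mean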;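 note: 0% = cytokine-treated negative control wells and 100% = positive control rescue; higher means more ATP so stronger rescue from cytokine killing; wells of about 40 µL received 100 nL stock; the first replicate is given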
FGF22 binding: shifts melting point of recombinant human FGF22. Q9HCT0. recombinant FGF22 thermal shift, SYPRO orange fluorescence; percent of sucrose octasulfate shift, DMSO zero. calls only at 9.99 µM. hit rate 1.5% among 340,000. AID 651658;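 active = melting point raised past a set limit in the mean and every replicate; inconclusive = no clear call; three in four hits are not shown here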
Target sequence (Q9HCT0 whole entry, looked up): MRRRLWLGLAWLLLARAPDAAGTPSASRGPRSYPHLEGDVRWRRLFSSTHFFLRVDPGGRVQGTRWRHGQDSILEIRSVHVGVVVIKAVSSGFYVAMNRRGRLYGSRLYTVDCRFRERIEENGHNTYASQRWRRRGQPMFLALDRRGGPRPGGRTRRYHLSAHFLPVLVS
rRNA inh HTS OD600: recorded beside rRNA inh HTS, whose call it bears; OD600 change, %; measured here: OD600 growth;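 optical density of the mix in the first replicate; 0 = DMSO median and -100 = no signal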
rRNA inh HTS RFP: further read-out of rRNA inh HTS, marked with its call; RFP signal change, %; measured here: RFP humanized mutant strains;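 first replicate; 0 = DMSO median and -100 = no signal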
* marks the source's active call; other numbers are inactive results; i = inactive; ? = inconclusive; · = no result given. A portion of the library; the hit share may differ from the screen's.

SMILES | Calb FLC | AF4-AF9 inh | T cruzi repl | rRNA inh HTS | rRNA inh HTS OD600 | rRNA inh HTS RFP | RanGTP-Imp inh | ALR H2O2 inh | Beta apoptosis | FGF22 binding
COc1cccc(OC)c1C(=O)Nc1cccc(-c2ccc(N3CCOCC3)nn2)c1 | -5 | 5.6 | -9 | 5 | 8 | 0.3 | 0.9 | -12 | 5 | i
CCOC(=O)N1CCN(S(=O)(=O)c2ccc(C(=O)NNc3nc4c(C)cc(C)cc4s3)cc2)CC1 | 29 | 4.3 | 40 | · | · | · | 0.4 | 25 | 97* | i
O=C(CN1C(=O)CSC1=O)Nc1ccccc1F | 5 | · | -19 | · | · | · | 2.4 | -8 | -5 | ·
COc1ccccc1/C=C1\SC(=S)N(CCC(=O)NCCc2ccc(O)cc2)C1=O | -2 | -2.6 | 17 | 8 | 8 | -2.4 | 0.4 | 12 | · | i
O=C(C1CC(=O)N(c2ccc3c(c2)OCCO3)C1)N1CCN(Cc2ccccc2F)CC1 (stereo not drawn) | · | -0.6 | · | 5 | -6 | -1.3 | · | -4 | 2 | i
Cn1cnc(S(=O)(=O)N2CCN(c3cccc(C(F)(F)F)c3)CC2)c1 | -8 | -0.5 | -12 | 4 | -3 | -0.9 | 0.7 | -6 | 0 | i
Cc1ccccc1C(=O)Nc1ccc(C(=O)N/N=C/c2ccc(O)c(Br)c2)cc1 | -48 | -0.5 | -11 | -19* | -4.6* | -2.0* | 4.0 | 41 | -3 | i
CCN(CC)c1ncnc2ccc(Br)cc12 | 3 | · | 1 | · | · | · | 0.7 | · | -4 | ·
CC(C)(C)c1cc(CN2CCN(CCC#N)CC2)cc(C(C)(C)C)c1O | -5 | · | 4 | · | · | · | -0.5 | 14 | -9 | ·
C=C(C)Cn1c(-c2cccc([N+](=O)[O-])c2)n[nH]c1=S | 33 | -5.5 | 0 | -1 | 5 | -1.2 | 2.6 | 62 | -4 | i
COc1ccc(Cl)c(NC(=O)NCCN2CCN(c3ccccc3)CC2)c1 | -4 | · | 12 | · | · | · | -4.2 | 8 | 2 | ·
COc1cc(C(=O)NNC(=O)CSc2nnc3ccccn23)cc(OC)c1OC | · | 2.1 | · | 7 | 17 | -1.3 | · | -2 | -1 | i
O=C(Nc1cccnc1)c1ccc(Cl)c([N+](=O)[O-])c1 | 16 | -1.2 | -6 | 18 | 6 | 0.3 | 0.8 | 4 | · | i
CCSC(=Nc1ccccc1)C1=C(O)COC1=O | 1 | · | -1 | · | · | · | -2.1 | -17 | 1 | ·
COc1ccc(C(=O)CN2C(=O)c3ccccc3C2=O)c(OC)c1C | 3 | 4.4 | 2 | 14 | 14 | -7.6 | 4.5 | 0 | -1 | i
Cc1ccc(Cl)cc1NC(=O)CN1CCOCC1 | -7 | -0.9 | -6 | 20 | 2 | 0.9 | 3.2 | -2 | -8 | i
CCOC(=O)N1CCN(C(=O)CSCc2nc(-c3ccccc3C)oc2C)CC1 | 0 | · | -2 | · | · | · | -2.5 | 99* | · | ·
COc1ccc(/C(C)=N/NC(=O)c2sccc2-n2cccc2)cc1 | 1 | -1.7 | 5 | -17 | -15 | -5.1 | 1.9 | -2 | -1 | i
COc1ccc(C(C)(C)C)cc1NC(=O)c1ccc2c(c1)SC1=NS(=O)(=O)CCN12 | 5 | -0.8 | 25 | 6 | 5 | -0.5 | -2.2 | -9 | 1 | i
CC1CCCN(C(C(=O)Nc2ccc3c(c2)OCCO3)c2ccccc2)C1 (stereo not drawn) | 5 | · | 17 | · | · | · | ? | 0 | -1 | ·
COc1ccccc1N1CCN(C(=O)C(Sc2ccccc2)c2ccccc2)CC1 (stereo not drawn) | 0 | · | 3 | · | · | · | -0.1 | -1 | -1 | ·
O=[N+]([O-])c1cc2c(cc1CN1CCN(c3ccc(F)cc3)CC1)OCO2 | -13 | 14 | 12 | -26 | -29 | -5.0 | -2.1 | · | -1 | i
O=C(COc1ccccc1-c1ccccc1)NNC(=O)NC1CCCCC1 | -18 | 1.0 | -16 | -22 | -52 | 3.2 | 2.4 | 0 | -4 | i
CNc1nc(N)c([N+](=O)[O-])c(NCCO)n1 | 4 | 2.1 | -35 | 1 | 3 | 2.5 | 2.0 | -1 | -6 | i
CCOC(=O)c1ccc(NC(=O)COc2ccccc2CNCCc2ccccc2)cc1 | -3 | 15 | 51 | -51 | -80 | -14 | -1.4 | -5 | 22 | i
COc1ccc(-c2ccc(-c3nnn(CC(=O)N4CCOCC4)n3)cc2)cc1 | -9 | · | -18 | 21 | 18 | -1.7 | 1.2 | -10 | -5 | ·
CCCn1nnnc1NCc1cccc(OC)c1OCC | -14 | -2.5 | -11 | -3 | 1 | -0.2 | 5.3 | 1 | -2 | i
O=C(Nc1cccc(-c2cn3ccccc3n2)c1)c1cnccn1 | 6 | · | -9 | · | · | · | -0.3 | -2 | 2 | ·
O=C(O)/C=C/C(=O)N1N=C(c2ccco2)CC1c1ccco1 (stereo not drawn) | -4 | -3.8 | 2 | 5 | 13 | 1.2 | -0.5 | · | 0 | i
Cc1cccc2sc(N(CCCN(C)C)C(=O)c3ccc(S(=O)(=O)N4CCc5ccccc5C4)cc3)nc12 | -5 | 7.7 | 29 | -10 | -10 | 0.9 | -0.8 | -3 | 13 | i

An excerpt taken from the entries so far, as a working copy:
SMILES | Calb FLC | AF4-AF9 inh | T cruzi repl | rRNA inh HTS | rRNA inh HTS OD600 | rRNA inh HTS RFP | RanGTP-Imp inh | ALR H2O2 inh | Beta apoptosis | FGF22 binding
Cc1ccccc1C(=O)Nc1ccc(C(=O)N/N=C/c2ccc(O)c(Br)c2)cc1 | -48 | -0.5 | -11 | -19* | -4.6* | -2.0* | 4.0 | 41 | -3 | i
CCN(CC)c1ncnc2ccc(Br)cc12 | 3 | · | 1 | · | · | · | 0.7 | · | -4 | ·
CC(C)(C)c1cc(CN2CCN(CCC#N)CC2)cc(C(C)(C)C)c1O | -5 | · | 4 | · | · | · | -0.5 | 14 | -9 | ·
C=C(C)Cn1c(-c2cccc([N+](=O)[O-])c2)n[nH]c1=S | 33 | -5.5 | 0 | -1 | 5 | -1.2 | 2.6 | 62 | -4 | i
COc1ccc(Cl)c(NC(=O)NCCN2CCN(c3ccccc3)CC2)c1 | -4 | · | 12 | · | · | · | -4.2 | 8 | 2 | ·
COc1cc(C(=O)NNC(=O)CSc2nnc3ccccn23)cc(OC)c1OC | · | 2.1 | · | 7 | 17 | -1.3 | · | -2 | -1 | i
O=C(Nc1cccnc1)c1ccc(Cl)c([N+](=O)[O-])c1 | 16 | -1.2 | -6 | 18 | 6 | 0.3 | 0.8 | 4 | · | i
CCSC(=Nc1ccccc1)C1=C(O)COC1=O | 1 | · | -1 | · | · | · | -2.1 | -17 | 1 | ·
COc1ccc(C(=O)CN2C(=O)c3ccccc3C2=O)c(OC)c1C | 3 | 4.4 | 2 | 14 | 14 | -7.6 | 4.5 | 0 | -1 | i
Cc1ccc(Cl)cc1NC(=O)CN1CCOCC1 | -7 | -0.9 | -6 | 20 | 2 | 0.9 | 3.2 | -2 | -8 | i
CCOC(=O)N1CCN(C(=O)CSCc2nc(-c3ccccc3C)oc2C)CC1 | 0 | · | -2 | · | · | · | -2.5 | 99* | · | ·
COc1ccc(/C(C)=N/NC(=O)c2sccc2-n2cccc2)cc1 | 1 | -1.7 | 5 | -17 | -15 | -5.1 | 1.9 | -2 | -1 | i
COc1ccc(C(C)(C)C)cc1NC(=O)c1ccc2c(c1)SC1=NS(=O)(=O)CCN12 | 5 | -0.8 | 25 | 6 | 5 | -0.5 | -2.2 | -9 | 1 | i

Next section.
SMILES | Calb FLC | AF4-AF9 inh | T cruzi repl | rRNA inh HTS | rRNA inh HTS OD600 | rRNA inh HTS RFP | RanGTP-Imp inh | ALR H2O2 inh | Beta apoptosis | FGF22 binding
NC(=O)OCC(O)COc1ccc(Cl)cc1 (stereo not drawn) | · | 2.7 | · | 3 | 7 | -4.2 | · | -6 | -5 | i
CCn1ccnc1CN1CCCC(CO)(Cc2cccc(OC)c2)C1 (stereo not drawn) | -5 | 1.4 | 3 | 3 | 1 | -1.5 | 1.6 | -2 | 1 | ·
COc1ccc(-c2n[nH]c(=S)n2-c2ccccc2C)cc1OC | 1 | -8.9 | -5 | 17 | 18 | 2.4 | -0.2 | -9 | -9 | i
COc1ccc(N2CCN(C(=O)c3ccc(CNS(=O)(=O)c4ccc(C)cc4)cc3)CC2)cc1 | -6 | 1.7 | 16 | -11 | -11 | 2.5 | 2.3 | 14 | 8 | i
Cc1ccc(C)c(OCCC(=O)OCC(=O)Nc2cccnc2Cl)c1 | 17 | -14 | -2 | -7 | -6 | -2.4 | -1.1 | · | -4 | i
COc1ccc(NC(=O)c2ccc(OCC3CCCO3)cc2)cc1OC (stereo not drawn) | · | 1.7 | · | -2 | 6 | -1.4 | · | -4 | 0 | i
C[C@@H]1CCC(=O)N(CC[C@H](Oc2ccccc2)c2ccccc2)CC1 | 1 | 4.8 | 31 | -28 | -57 | -7.9 | 0.5 | · | 1 | i
Cn1c(=O)oc2cc(S(=O)(=O)NCCc3ccccc3)ccc21 | · | · | -11 | · | · | · | 0.0 | 4 | 2 | ·
O=C(Nn1cnc2ccccc2c1=O)c1ccccc1 | -16 | -3.8 | -19 | 17 | 10 | -0.2 | 9.5 | · | 2 | i
COc1cccc(CC2(CO)CCCN(Cc3ccc(OC(F)F)cc3)C2)c1 (stereo not drawn) | -2 | 1.4 | 42 | -13 | -10 | 1.3 | -3.1 | · | -3 | i
O=C(C[n+]1ccccc1)N/N=C/c1ccccc1Cl | · | -1.6 | · | 10 | 12 | -2.2 | · | · | -5 | i
CCn1c(SCC(=O)Nc2nnc(C)s2)nnc1C(C)NC(=O)c1ccccc1 (stereo not drawn) | -2 | -0.4 | -8 | 1 | -7 | -2.7 | 1.3 | -3 | -6 | i
COc1ccc(-c2nnc(NC(=O)c3ccc(S(=O)(=O)N4CCCc5ccccc54)cc3)o2)cc1 | 101* | · | 63* | · | · | · | 1.9 | 15 | 3 | ·
O=C(Nc1ccc(NC(=O)C2CC2)nc1)c1cccnc1 | -4 | · | -10 | · | · | · | -2.0 | -20 | 7 | ·
CSCc1cc(N2CCCC2)nc(-c2ccccc2)n1 | 25 | -1.0 | 15 | -23 | -40 | -7.7 | -1.3 | 26 | -7 | i
CC(=O)Nc1ccc(OCC(O)CNC2CCCC2)cc1 (stereo not drawn) | -11 | · | -34 | · | · | · | -2.6 | 49 | 1 | ·
O=C(Nc1ccc(-c2ccccc2)cc1)c1ccccc1 | 8 | 3.3 | -4 | -3 | -2 | 2.6 | -2.6 | · | 0 | i
COC(=O)CSc1nc2c(cnn2-c2ccc(F)cc2)c(=O)[nH]1 | 6 | 1.9 | -6 | 4 | 9 | -3.3 | 1.6 | 6 | -6 | i
